Source: PubChem BioAssay
ClpP mod: qHTS Assay for Activators of ClpP. ATP-dependent Clp protease proteolytic subunit (Bacillus subtilis (strain 168)), P80244. purified B. subtilis ClpP, FRET peptide cleavage, 20 min. Potency, µM (series often up to 57.5 µM), for the others: at the top dose activity change, negative = active. actives 1.9% (n = 340,000). AID 651965, 2013; active = well fitted falling curve with a large enough effect; inconclusive = small, poorly fitted or top-dose-only effect; inactive = no such curve, though single readings can be large or run the other way; further: potency means the concentration at half of the fitted maximal effect; the source files actives as falling curves though it sought activators and does not explain the sign; nearly all actives have a fitted effect of over 65% in size; many hits overshoot -100%
Target sequence (P80244 whole entry, looked up): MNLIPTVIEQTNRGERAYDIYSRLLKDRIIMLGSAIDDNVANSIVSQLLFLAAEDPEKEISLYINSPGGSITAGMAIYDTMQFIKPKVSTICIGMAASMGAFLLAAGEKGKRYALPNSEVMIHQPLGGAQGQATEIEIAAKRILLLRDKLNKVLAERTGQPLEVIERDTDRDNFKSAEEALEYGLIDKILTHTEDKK
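ClpP 10 microg/mL final, pH 8 Tris/KCl buffer with BSA, glycerol, Tween-20; compound pinned in; FRET-FV substrate; RT 20 min; Ex320/Em430; ΔFRET vs ADEP 5.8 microM, DMSO, no enzyme.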
gsp agonist: agonists of gsp mutant (McCune-Albright syndrome). gsp mutant cells, cAMP HTRF, 30 min; control for the full effect not named in the record. Potency, µM (titrated, usually from 76.9 µM), for inactives: at the highest dose activation (cAMP increase), usual class: activators. actives 0.13% (n = 340,000). AID 624287; active = well fitted activation curve with a large enough effect; inconclusive = small, poorly fitted or top-dose-only effect, or another doubt; inactive = no such curve, though single readings can be large or run the other way; cell line not stated here;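 further: phosphodiesterase inhibitor Ro 20-1724 added with compounds to block cAMP breakdown; potency means the concentration at half of the fitted maximal effect; nearly all actives have a fitted effect of over 60% in size; about a fifth of the inactives were tested at one dose only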
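Cells in DMEM/10% FBS with G418 were pretreated with compounds in DMSO plus […] (300 uM stock) for 30 min at 37C. cAMP was measured by HTRF (cAMP-d2 plus anti-cAMP antibody-K) after 30 min at room temperature.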
gsp antagonist: antagonists of gsp mutant (McCune-Albright syndrome); gsp-mutant cells, cAMP HTRF, 30 min; control for the full effect not named in the record; Potency, µM (doses to about 76.9 µM), without a hit: at the highest dose activity change, negative = inhibition, actives largely listed as inhibitors; actives 0.4% (n = 340,000); AID 624288; active = falling curve of any shape with a large fitted effect; inconclusive = falling curve, mostly with a smaller effect; inactive = flat or rising curve; cell line not stated here;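 further: intracellular cAMP measured with PDE inhibitor Ro 20-1724 present during compound exposure; potency means the concentration at half of the fitted maximal effect; on the % scale 0 is the no-effect control and ±100 the full control effect; nearly all actives have a fitted effect of over 65% in size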
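Cells, 2000/well, grown 16–24 h in DMEM 10% FBS with 0.5 mg/ml G418, then compounds plus […] (300 uM addition stock), 30 min at 37C. cAMP read by HTRF (cAMP-d2 and anti-cAMP antibody-K in lysis buffer) after 30 min RT.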
Menin-MLL FL inh: menin-MLL binding inhibition, fluorescein peptide. AID 1766. Fluorescence polarization, fluorescein-MLL peptide displacement from menin. FP activity change, % at 61.4 µM. 290,000 tested, under 10 active; inconclusive = falling polarisation curve, or a change in total fluorescence; inactive = total fluorescence flat and polarisation flat or rising; no compound was filed as active; the % refers to the polarisation; negative = inhibition;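 further: % of control where 0% means no effect; inhibitors lower the polarisation; unlabelled MLL peptide was the positive control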
D2 PAM: human D2 receptor positive allosteric modulation | P14416 | actives 0.23% (n = 360,000) | potentiation, % (no concentration beside the values) | AID 624464 | DiscoveRx D2 beta-arrestin cells, luminescence, 90 min; 100% = 57 uM dopamine signal; active = potentiation of 50% or more; inconclusive = 30% to 50%; inactive = 30% or less;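 further: compound concentration not given in the record; tested on top of an EC20 dose of dopamine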
Target sequence (P14416 whole entry, looked up): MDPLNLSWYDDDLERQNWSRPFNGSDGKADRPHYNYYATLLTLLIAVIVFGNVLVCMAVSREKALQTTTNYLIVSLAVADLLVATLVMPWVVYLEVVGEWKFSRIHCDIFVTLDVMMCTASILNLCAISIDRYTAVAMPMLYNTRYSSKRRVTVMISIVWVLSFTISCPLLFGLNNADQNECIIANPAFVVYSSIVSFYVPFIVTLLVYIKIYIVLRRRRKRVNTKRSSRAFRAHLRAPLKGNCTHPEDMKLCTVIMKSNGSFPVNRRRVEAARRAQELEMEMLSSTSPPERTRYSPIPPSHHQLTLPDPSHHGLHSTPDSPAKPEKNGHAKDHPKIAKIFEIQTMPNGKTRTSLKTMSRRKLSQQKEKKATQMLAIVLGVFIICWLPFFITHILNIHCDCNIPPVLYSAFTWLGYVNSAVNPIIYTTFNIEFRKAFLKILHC
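PathHunter D2 cells, attached overnight at 37 deg C, received compound in DMSO plus dopamine at EC20 (50 nM final) for 90 min at 37 deg C. Beta-arrestin recruitment was read as luminescence after 1 h with detection reagent at ambient temperature.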
Sfp PPTase inh: Sfp phosphopantetheinyl transferase inhibition; Q9F4F7; Biochemical Sfp PPTase activity, qHTS; Potency, µM, inactives show max response, negative = inhibition, hits mostly inhibitors; actives 3.5% (n = 310,000); AID 1490; active means well fitted inhibition curve with a large enough effect; inconclusive means small, poorly fitted or top-dose-only effect, or another doubt; inactive means no such curve, though single readings can be large or run the other way;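 further: the enzyme is Sfp with the accession as filed and its product quenches rhodamine fluorescence; potency means the concentration at half of the fitted maximal effect; 0% = enzyme reaction without inhibitor and -100% = no enzyme wells; top concentration of the series not given in the record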
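Reaction rates are the 30-min fluorescence difference (ex 525, em 598 nm) in wells containing 15 nM Sfp, 5 uM rhodamine-CoA and 12.5 uM BHQ-2-YbbR at pH 7.6 with 10 mM MgCl2.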
TRPV1 PAM: human TRPV1 potentiation | TRPV1-expressing cells, Fluo-8 calcium influx, capsaicin EC20 potentiation; host cell line not named in the record; control for the full effect not named in the record | actives 0.02% (n = 320,000) | potentiation, % at 8.33 µM | Q8NER1 | AID 540277; active means potentiation above 80%; inconclusive means 30% to 80%; inactive means below 30%; further: 0% is about no effect
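Fluo-8 calcium influx in TRPV1-expressing cells, kinetic read (ex 480/em 520 nm). Compound added and read 3 min for agonist activity, followed by capsaicin at EC20 final and 2 min further read for enhancement.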
Active calls of the source: *; ? = inconclusive; . = no result given; [ ] = dose if it differs, or a comment.

SMILES	ClpP mod	gsp agonist	gsp antagonist	Menin-MLL FL inh	D2 PAM	Sfp PPTase inh	TRPV1 PAM
O=C(CCSCc1cccc(Cl)c1)NC1CCCC1	1.3%	15.2%	-17.2%	-0.8	-17.9	-23.7%	-8.4
COC(=O)CSc1nnc(CNC(=O)c2ccccc2F)n1-c1ccccc1	.	-3.0%[15.4 µM]	21.6%	2.3	-0.4	16.0%	2.1
COc1ccc(OCCN2C(=O)c3ccccc3C2=O)cc1	.	-8.4%[15.4 µM]	10.1%	-4.0	0.4	8.4%	-1.0
COc1ccc(C2CC(=O)Oc3cc4c(cc32)OCO4)cc1 (stereo unspecified)	0.4%	.	-7.6%	-3.0[94.6 µM]	1.9	-7.8%	.
CN(C)C(CNC(=O)c1cccc(NS(=O)(=O)c2ccc(Br)cc2)c1)c1ccco1 (stereo unspecified)	3.3%	-4.6%	5.7%	.	-33.2	.	-9.7
Cn1/c(=N\NC(=O)C2CCCCC2)sc2ccccc21	14.1µM*	1.7%[15.4 µM]	3.0%	-0.4	-4.6	13.2%	-18.4
CCCc1[nH][nH]c(=O)c1C(c1cccc(Cl)c1)C(C#N)C#N (stereo unspecified)	-1.2%	-27.5%	-4.7%	-1.5	-20.0	-9.6%	-8.6
CS(=O)(=O)N(CC(=O)Nc1ccc(S(=O)(=O)N2CCOCC2)cc1)c1ccccc1Br	.	-17.6%[15.4 µM]	-15.6%	-6.4	-11.8	?	-0.5
O=C(NNS(=O)(=O)c1ccc2ccccc2c1)c1cccs1	1.5%	-1.4%	-7.6%	0.4	-13.1	21.5%	13.0
COc1ccc(OCc2cc(C(=O)NC(C)c3cnn(C)c3)no2)c(Cl)c1 (stereo unspecified)	-0.6%	?	-17.8%	.	1.7	9.8%	-11.4
O=S(=O)(Nc1cnc2ccccc2c1)N1CCCCCC1	-3.6%	?	-8.4%	-1.3	4.5	-16.1%	-22.0
COc1cccc(N2CCN(CC(=O)Nc3ccnn3C3CCCC3)CC2)c1	0.7%	-103.2%[inhibitor]	-22.7%	.	-1.9	.	3.3
CCOC(=O)c1nnn(-c2nonc2OC)c1-c1ccccc1	-3.0%	-7.4%	-13.0%	4.2	-4.1	2.7%	2.5
COc1ccc(CN2CCN(C(=O)c3ccc(S(=O)(=O)NCc4ccco4)cc3)CC2)cc1F	0.2%	-3.1%	-7.9%	.	14.2	.	-16.5
CCN1CCCC1CNC(=O)c1ccc(N2CCOCC2)c(NS(=O)(=O)c2ccc(OC)cc2)c1 (stereo unspecified)	-8.2%	-65.7%[inhibitor]	9.5%	4.6	-17.3	8.8%	4.6
Cc1onc(-c2c(F)cccc2Cl)c1C(=O)NC(=S)NC1CCSC1=O (stereo unspecified)	-1.4%	3.5%	0.2%	4.2	-3.2	5.2%	-11.1
COc1cnn(Cc2ccccc2)c(=O)c1SCc1ccccc1	-2.4%	-1.7%[15.4 µM]	-18.5%	.	-3.4	-8.8%	-15.1
CC(=O)N1CCN(C(=O)c2cc(S(=O)(=O)NCc3ccccc3)ccc2C)CC1	1.5%	-2.1%[15.4 µM]	14.8%	.	4.4	14.1%	-3.9
O=C(NC(=S)NC(CO)c1ccccc1)c1ccc(F)cc1 (stereo unspecified)	-0.2%	-6.2%	-3.5%	-9.6	-8.7	6.7%	-5.2
Cc1cc(C=O)c(C)n1-c1ccc(N2CCCC2)c([N+](=O)[O-])c1	2.1%	-33.6%	8.3%	-2.5	3.1	0.4%	-1.8
CC1(C)C2CCC1(CS(=O)(=O)NCc1ccc(Cl)cc1Cl)C(=O)C2 (stereo unspecified)	-1.1%	-2.8%[15.4 µM]	-3.0%	-0.3	-2.1	4.1%	-14.0
COc1ccc(NC(=O)C(=O)c2cn(CC(=O)N3CCCC3)c3ccccc23)c(OC)c1	-1.7%	17.8%	5.2%	4.9	-28.5	-0.1%	1.5
CCN(CC)CCn1c2c(c(SCC(=O)Nc3nc4ccccc4s3)nc1=O)CCC2	-1.9%	15.9%	-20.4%	.	-24.7	.	7.9
CC(C)Oc1ccc(CNCCC2(C(C)C)CCOC(C)(C)C2)cc1 (stereo unspecified)	-0.2%	?	1.7%	3.1	2.8	7.9%	-23.9
CC1CCCCN1C(=O)CSc1nc(N)cc(=O)[nH]1 (stereo unspecified)	?	-4.7%	17.1%	-0.3	5.2	-11.3%	0.6
COc1ccc(C(=O)n2nc(-c3ccco3)nc2N)cc1	2.3%	12.4%	8.8%	-0.3	?	13.6%	-4.4
CNC(=O)c1c(NC(=O)c2ccc(S(=O)(=O)N3CCCCC3C)cc2)sc2c1CCN(C)C2 (stereo unspecified)	-0.1%	-0.7%	-2.6%	.	-2.6	4.0%	-11.4
COC(=O)Cn1c(CN2CCN(c3ccccc3F)CC2)nc2c1c(=O)n(C)c(=O)n2C	-0.6%	22.1%	9.6%	.	-12.0	.	.
O=C(COC(=O)Cc1c[nH]c2ccccc12)Nc1c(Cl)cccc1C(F)(F)F	.	27.3%[15.4 µM]	-0.4%	.	-4.2	.	8.4
CCOC(=O)c1c(NC(=O)C[n+]2ccc(N(C)C)cc2)sc(C)c1C	.	8.5%	12.2%	-0.7	-7.7	8.3%	-1.4
CCOC(=O)N1CCC(N(C(=O)Nc2ccccc2)C(C)CC)CC1 (stereo unspecified)	-1.3%	7.7%	-1.1%	2.2	-8.6	9.8%	1.6
Brc1cccc(OCCOCCn2ccnc2)c1	-1.1%	2.2%	5.9%	2.6	-1.6	?	0.7
CC(NS(=O)(=O)c1ccc(Br)s1)c1ccccc1 (stereo unspecified)	-1.9%	2.2%	2.5%	-1.7	-9.3	7.5%	-4.8
COc1cc(NC(=O)COC(=O)CCOc2ccc(C)cc2)cc(OC)c1	1.1%	-0.2%	9.7%	2.9	7.5	3.9%	1.7
COc1cc(C(=O)Nc2ccc(NC(=O)c3cccc(Cl)c3)nc2)cc(OC)c1OC	.	-7.0%	-20.9%	-1.3	7.2	-5.3%	21.4
CCOCCCNC(=O)C(c1ccc(C)cc1)N(Cc1cccs1)C(=O)c1ccccn1 (stereo unspecified)	.	1.4%[15.4 µM]	0.9%	-1.3	5.3	23.0%	-13.2
CC1=C(C(=O)N(C)C)CC(CC(=O)NCCCCc2ccccc2)C(=O)N1CCCN1CCCC1=O (stereo unspecified)	-1.1%	-37.2%[inhibitor]	.	.	7.1	.	.
O=C1NCCCC1C(=O)N1CCCCC1 (stereo unspecified)	.	-5.3%	8.9%	1.6	-4.4	-11.8%	4.5
Cc1cc(C)c2c(n1)nn1c(-n3ccnc3)cc(C)nc21	?	1.2%	-3.8%	0.4	-3.7	-0.1%	-15.0
CCOC(=O)N1CCN(S(=O)(=O)c2ccc(C(=O)N(CCN(C)C)c3nc4ccc(CC)cc4s3)cc2)CC1	-1.8%	28.1%	3.5%	-2.5	-11.3	2.4%	1.1
Cc1ccc(Nc2nc(N)nc(CN3CCN(Cc4ccccc4)CC3)n2)cc1Cl	-2.4%	-0.2%	1.0%	14.3	-16.5	0.0%	10.2
COc1ccc(-c2nn(-c3ccccc3)cc2/C=C2/SC(=S)N(Cc3ccco3)C2=O)c(C)c1	0.7%	-30.9%[inhibitor]	-0.6%	14.7	-7.0	-8.5%	15.6
COC(=O)c1ccccc1S(=O)(=O)NNC(=O)C12CC3CC(CC(C3)C1)C2	1.2%	-3.1%	14.2%	.	-2.1	.	.
O=C(O)c1cc(S(=O)(=O)Nc2ccc3oc(=O)sc3c2)ccc1O	64.2%	-15.1%	7.4%	0.2	4.4	39.8µM*	8.6
COc1cc2cc(CCCOC(=O)c3ccc(Br)cc3)oc(=O)c2cc1OC	-3.8%	.	-12.6%	.	-5.5	.	-9.3
O=[N+]([O-])c1cccc(-c2ccc(C(=S)N3CCOCC3)o2)c1	.	2.8%	-5.5%	0.6	6.4	20µM*	4.4
O=C(NCc1nnc(SCC(=O)N2CCN(c3ccccc3)CC2)o1)c1ccco1	3.3%	-22.5%	4.6%	-6.2	-3.8	8.0%	-1.1
FC(F)(F)c1ccc(-n2cnc3ccccc32)nc1	-7.9%	18.8%	1.4%	-1.8	-3.9	-0.1%	-45.8
C[C@]12CCC[C@H](O1)c1c(cc3c(c1O)C(=O)c1c(O)cc(O)cc1C3=O)O2	0.4%	15.8%	-22.0%	.	1.0	.	.
Nc1nc(C2CC(=O)OC23CCCCC3)cs1 (stereo unspecified)	-4.0%	3.5%[15.4 µM]	7.6%	0.0	-2.3	-2.5%	-23.3

New compounds follow:
SMILES	ClpP mod	gsp agonist	gsp antagonist	Menin-MLL FL inh	D2 PAM	Sfp PPTase inh	TRPV1 PAM
O=C1CN(C(=O)c2ccc(Br)o2)C(c2ccccc2)c2cc(Cl)ccc2N1 (stereo unspecified)	0.3%	-12.2%	-14.5%	5.1	-0.9	?	.
N#CCCN(C(=O)COC(=O)C12CC3CC(CC(O)(C3)C1)C2)c1ccc(F)cc1	-1.7%	?	14.2%	.	-1.8	.	-7.6
Clc1ccc2oc3c(Cl)ncnc3c2c1	.	-15.2%	14.2%	0.6	5.5	0.3%	-7.0
N#C/C(=C\c1ccc(O)c(O)c1)S(=O)(=O)c1ccccc1	0.6%	-57.8%[inhibitor]	?	?	-14.6	10.7%	-16.1
